Screening data from PubChem BioAssay.
Rce1 inhib = inhibitors of yeast Ras-converting enzyme; yeast membranes, quenched prenylated peptide cleavage fluorescence; calls only; hit rate 0.27% among 290,000;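 active = fall in fluorescence gain of 50% or more versus controls, with final raw signal at or below 3038400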;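 note: plate controls were neutral control wells for no effect and wells lacking membranes for full effect; tested at 10 µM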
Target sequence (Q03530 whole entry, looked up): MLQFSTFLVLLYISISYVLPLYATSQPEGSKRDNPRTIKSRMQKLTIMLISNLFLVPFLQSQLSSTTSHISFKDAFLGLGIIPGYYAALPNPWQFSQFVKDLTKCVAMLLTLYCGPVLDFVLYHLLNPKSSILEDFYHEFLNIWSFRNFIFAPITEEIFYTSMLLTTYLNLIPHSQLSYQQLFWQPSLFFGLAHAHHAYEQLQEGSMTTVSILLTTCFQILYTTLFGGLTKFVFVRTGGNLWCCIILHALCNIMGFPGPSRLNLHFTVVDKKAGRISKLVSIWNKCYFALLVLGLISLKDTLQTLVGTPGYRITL
eIF4H FP inh = inhibitors of RNA binding by human eIF4H | inhibition, % at 35 µM | Q15056 | AID 2012 | eIF4H fluorescence polarization binding assay | hit rate 0.94% among 290,000;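 active = 50% or more with normal probe brightness, or confirmed in later tests; about a fifth of its hits are not listed in these tables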;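 note: calls also rest on retests at 20 µM and on dose response follow-up; 0% = protein and probe with vehicle and 100% = probe without protein; strong numbers were not always called active; many hits fall short of the cut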
HIV Env fusion = HIV envelope-mediated fusion inhibition; HeLa-JRFL Env/CEM21 cell fusion, luciferase; inhibition, % at 12.3 µM; hit rate 1.1% among 360,000; AID 651610;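 active = mean replicate inhibition score of at least 50 and every replicate individually at or above 50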;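 note: 0% = plate neutral controls and 100% = maraviroc near 300 nM; one replicate is shown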
CSC inhib = blocks cancer stem cells. cancer stem cell-like cells viability, luminescence. inhibition, % at 7.5 µM. hit rate 1.1% among 300,000;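 active = mean at 75% or more and at least half the replicates too; tested in HMLE shEcad cells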;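 note: 0% = median of negative and 100% = median of positive control wells; the first replicate is given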
PABP polyA inh = PABP-poly(A) binding inhibition; hit rate 1% among 290,000; AID 2014; P11940; inhibition, % at 35 µM; PABP-poly(A) RNA binding, fluorescence polarization;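 active = 50% or more with normal probe brightness, or confirmed in later tests; about a fifth of its hits are not listed in these tables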;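 note: calls also rest on retests at 20 µM and on dose response follow-up; controls were probe without protein and protein plus probe with vehicle; some compounds called inactive have numbers as strong as hits; many hits fall short of the cut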
Yeast UUG start = yeast start codon fidelity modulation; S. cerevisiae UUG-firefly luciferase reporter, luminescence/redox ratio; activity score, % at 18.7 µM; hit rate 0.13% among 350,000; AID 602363;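 active = replicate mean at a twofold rise or more, about +100% in these data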;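 note: firefly luciferase made from a UUG start codon reports start codon fidelity; reporter light over untreated wells divided by growth signal over untreated wells; some hits fall short of that in this replicate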
MT1-MMP act inh = blocks activation of human MT1-MMP. HT1080 RFP-PRO-GFP cells, GFP/RFP ratio fluorescence, overnight; percent of plate control window, DMSO zero. GFP/RFP ratio change, % at 20 µM. hit rate 0.061% among 360,000;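 active = GFP/RFP ratio change of at least 30% with cell ATP level not reduced by more than half and red fluorescence within 50% of control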; note: strong numbers were not always called active
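Assay system – RFP-PRO-GFP reporter HT1080 cells · Compound dosing – single dose of 20 µM compound, 1% DMSO final · Incubation – overnight compound exposure at 37 °C · Measure – GFP/RFP fluorescence ratio · Benchmarks – DMSO wells and RFP-L50D-GFP cells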
eIF4H FP inh retest = also measured in eIF4H FP inh; calls as there; inhibition, %; compound at 20 µM; confirmation average;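 mean of two retest wells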
PABP polyA inh retest = recorded beside PABP polyA inh, whose call it bears; inhibition, %; compound at 20 µM; confirmation repeats;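 mean of two retest wells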
MT1-MMP act inh RFP = further read-out of MT1-MMP act inh, marked with its call; RFP signal change, %; measured here: RFP expression control read;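 0 = vehicle wells; hits needed this value within 50% of zero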
Active calls of the source: *; i = inactive; . = not tested or not shown; & = joins results of further samples.

SMILES	Rce1 inhib	eIF4H FP inh	HIV Env fusion	CSC inhib	PABP polyA inh	Yeast UUG start	MT1-MMP act inh	MT1-MMP act inh RFP	others
O=S(=O)(Nc1ccc(S(=O)(=O)N2CCCC2)cc1)c1ccccc1Br	.	.	-6	17	.	11	-1	3
CCOc1ccccc1C(=S)NC1CCCCC1	.	1	6	-19	5	9	-1	-1
COc1cccc(-c2cnc3c(NC(C)=O)cc(-c4ccc(OC)c(OC)c4)cn23)c1	.	.	-4	.	.	-5	1	11
COc1ccc(OC)c(C2C(C(=O)Nc3nc4ccccc4s3)=C(C)NC3=C2C(=O)CCC3)c1 (stereo unspecified)	i	0	.	-5	3	-2	-9	-23
O=C(Cn1cc(CNC(=O)C2CCCCC2)nn1)Nc1cc(C(F)(F)F)ccc1Cl	.	.	-18	.	.	-2	5	2
Cc1ccccc1NC(=O)c1ccc2c(O)c(S(=O)(=O)c3ccccc3)c(=O)[nH]c2c1	i	-8	-4	-7	21	13	-3	0
COc1ccccc1C1=NOC(Cn2c(NCCOCCO)nc3c2c(=O)n(C)c(=O)n3C)C1 (stereo unspecified)	i	-10	-1	6	6	19	0	0
CC(=O)Nc1cccc(-c2cc(NC(C)=O)c3ncc(-c4ccc(C(C)=O)cc4)n3c2)c1	.	.	16	.	.	-30	-1	5
NC(=O)C1CCN(C(=O)c2cccc3ccccc23)CC1	i	2	-1	11	5	9	-1	3
O=C(Cn1cc(C(F)(F)F)ccc1=O)N1CCN(S(=O)(=O)c2ccc(Cl)cc2)CC1	i	1	-72	0	0	-8	2	-1
Cc1ccc(/C=N/NC(=O)c2sccc2OCc2ccc(F)cc2)cc1	i	-1	.	.	6	-9	4	-10
COc1ccccc1-c1cc(N)n(S(=O)(=O)c2cccc3nsnc23)n1	i	-14	10	-11	3	-13	1	-9
CC1CCc2sc(C(=O)N/N=C/C3CCCCC3)cc2C1 (stereo unspecified)	i	6	-14	2	-10	.	0	6
CC(=O)N/N=C(\C)c1ccc(Br)cc1Br	i	3	9	-2	6	-6	3	2
CCCCCCCCC(=O)NCCOc1ccccc1	i	-5	.	9	0	5	7	4
CCOC(=O)C(=O)NC12CC3CC(CC(C3)C1)C2	i	1	.	-16	6	.	4	6
CN(CC(=O)Nc1ccccc1Br)C(=O)CNC(=O)C1CCCCC1	.	.	.	0	.	0	0	3
Cc1nc2ccsc2c(=O)n1-c1cccc(Cl)c1	i	.	-17	-4	.	.	-3	1
COc1ccccc1C(CNC(=O)c1cc(S(=O)(=O)N2CCOCC2)ccc1C)N1CCCC1 (stereo unspecified)	.	.	.	-8	.	-7	-3	1
Cc1cccc(NC(=O)CSCC(=O)N2CCCc3ccccc32)c1	i	.	-4	-3	.	-9	3	3
C=CCn1c(SCC(=O)N2CCc3ccccc3C2)nc2sc(C)c(C)c2c1=O	i	5	9	51	-1	.	0	-3
Cc1cc(Br)ccc1N=C1NC(=O)CS1	i	-15	-18	9	-10	-28	3	-4
O=C(Nc1ccc(Br)cc1)c1cccc(N2C(=O)CCC2=O)c1	.	-5	-1	-5	10	-3	1	1
Cc1cc(=O)n(Cc2ccc(OC(C)C)cc2)c(=S)[nH]1	i	0	-5	14	-2	-22	-3	-3
CCCCC(CC)COC(=O)CCCCC(=O)OCC(CC)CCCC (stereo unspecified)	.	.	.	12	.	-8	1	8
COC(=O)c1ccccc1NC(=O)c1cc2sccc2n1C	i	-2	-64	2	-1	-3	1	2
CN1/C(=C\C(=O)c2ccco2)c2ccccc2CC1(C)C	.	12	.	26	5	.	6	2
OCC1CCCN1C(=S)Nc1ccccc1 (stereo unspecified)	i	-9	-22	-14	6	-24	3	5
O=C(Nc1ccccc1)N1CCC(n2c(=O)[nH]c3ccccc32)CC1	i	-14	1	-11	-8	-12	1	0
CC(C)(C)C1=C(C#N)C(c2cccnc2)C(C#N)=C(N)O1 (stereo unspecified)	i	-1	20	-9	-12	.	-5	0
O=C(NCC(=O)N(Cc1cccs1)C(C(=O)NC1CCCCC1)c1ccncc1)c1ccco1 (stereo unspecified)	i	9	.	3	13	-9	-6	6
CCN(CC)CCCNC(=O)C1c2ccccc2Oc2ccccc21	i	6	.	-11	-6	-13	2	5
CCCCOc1ccc(C(=O)N(Cc2ccccc2)C2CCS(=O)(=O)C2)cc1 (stereo unspecified)	i	2	-10	-9	-8	6	1	-1
Fc1ccccc1Cc1noc(CN2CCN(c3ccc(Cl)cn3)CC2)n1	i	-5	-5	1	-7	-4	1	-1
CC(C)(C)c1ccc(C(O)c2ncc(-c3ccccc3F)[nH]2)cc1 (stereo unspecified)	.	.	-7	.	.	-17	-7	-3
COc1ccc(Nc2nc(=O)c3cc([N+](=O)[O-])ccc3s2)cc1	i	11	-8	.	-2	.	3	3
Cc1oc(-c2cccc(Cl)c2)nc1CN1CCC(C(=O)N2CCN(c3ccccc3F)CC2)CC1	i	-9	.	22	-2	-4	8	-8
COc1ccc(C(=O)C(C)[n+]2ccc(-c3nnc4n3CCCCC4)cc2)cc1 (stereo unspecified)	i	-5	6	11	4	3	-1	0
CCCCN(C)C(=O)c1ccc(S(=O)(=O)N2CCOCC2)cc1	i	-9	.	-5	-3	0	-2	2
O=[N+]([O-])c1ccc(Sc2cccc3cccnc23)c2cccnc12	i	4	50	3	-8	.	-4	-1
O=C(COC(=O)Cc1ccsc1)NCc1ccc(Cl)cc1	.	-9	-3	15	-1	.	-2	0
COC(C)(C)c1cc(C(C)(C)C)nc(N)n1	i	-4	-11	-23	-2	-19	-13	-3
C[C@H](CO)N1C[C@H](C)[C@@H](CN(C)S(=O)(=O)c2ccc(F)cc2)Oc2ccc(NC(=O)Cc3ccccc3)cc2C1=O	.	.	8	-6	.	9&4	1	-1
C=CCSc1nnc(NC(=O)C2CC(=O)N(Cc3ccc(C)cc3)C2)s1 (stereo unspecified)	.	.	5	-14	.	-12	-5	-1
COc1cc(/C=C2\SC(=S)N(CC(=O)O)C2=O)ccc1OS(=O)(=O)c1ccc(C)cc1	.	.	-6	4	.	-14	-2	0
Cc1[nH]c(=S)c(C#N)c(-c2ccccc2)c1C(=O)Nc1ccccc1	i	-8	6	6	3	.	-37	15
CCOC(=O)N1CCN(C(=O)c2cc(COc3ccc4ncccc4c3)on2)CC1	i	6	44	-6	2	-18	7	-22
COc1ccccc1OCCNC(=O)c1ccc(S(=O)(=O)N(C)C)cc1	i	6	.	-5	-6	-6	4	1
COc1ccccc1CC(=O)NCc1ccc2c(c1)OCO2	i	0	-107	-6	-3	-3	5	9
CCc1ccccc1Nc1nc(N)nc(COC(=O)c2c(C)noc2C)n1	.	.	6	15	.	-32	0	0
Further results follow.
SMILES	Rce1 inhib	eIF4H FP inh	HIV Env fusion	CSC inhib	PABP polyA inh	Yeast UUG start	MT1-MMP act inh	MT1-MMP act inh RFP	others
COc1ccc(-c2nc3c(Br)c(N)c(Br)cc3o2)cc1	.	4	.	-13	-5	-4	-3	3
COc1ccc(C2CC(c3cccs3)=NN2C(=O)CSc2nc3ccccc3o2)cc1 (stereo unspecified)	i	-5	21	13	10	-10	-1	-1
CCC1CCCCN1S(=O)(=O)c1ccc(S(=O)(=O)N(Cc2cccs2)C2CC2)cc1 (stereo unspecified)	i	-12	.	.	-4	-5	-21	-13
Cc1ccccc1OCc1n(CC(=O)OC2CC(C)CCC2C(C)C)c2ccccc2[n+]1C (stereo unspecified)	i	5&9	71*	10	-4&7	.	-50&-21	-38&-30
Cc1cc(=O)n2c3c(sc2n1)C(=O)N(Cc1ccccc1)C3=O	i	-7	.	16	-2	.	.	.
OC[C@@H]1CN(Cc2ccco2)C[C@H](n2cnc3c(NC4CCCC4)ncnc32)O1	.	.	25	.	.	-5	3	8
O=C(CN1C(=O)C2CCc3[nH]c4ccccc4c3C2C1=O)N1CCCC1 (stereo unspecified)	i	6	.	.	5	0&1	0	-1
O=C(Nn1cnnc1)c1cc(Cl)ccc1Cl	i	2	-13	8	11	-18	-2	3
Cc1ccc(NC(=O)Nc2c(C)n(C)n(-c3ccccc3)c2=O)cc1C	i	-11	-4	-4	7	-11	2	6
O=C(O)C(Cc1c[nH]c2ccccc12)N1Cc2ccccc2C1=O (stereo unspecified)	i	3	-18	-13	-4	-16	6	4
Cc1nn(Cc2ccc(C(=O)N3N=C(C(F)F)CC3(O)C(F)F)o2)c(C)c1[N+](=O)[O-] (stereo unspecified)	i	0	.	10	79	.	0	-5	eIF4H FP inh retest=5;PABP polyA inh retest=5

No enrichment for hits; about 2.9% have a hit in one of these screens.
